SKKanGAS inh – S. pyogenes SKKanGAS growth inhibitors in kanamycin, primary screen, streptokinase expression inhibitor project, SKKanGAS strain, BacTiter-Glo luminescence; 6 h; inhibition, % at 7.5 µM; 300,000 tested, 1.3% active;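 active = mean replicate score, as percent of positive control median, at least 50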;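 also: strain carries kanamycin resistance gene driven by streptokinase promoter and grows in 40 µg/ml kanamycin; loss of luminescence reflects streptokinase promoter inhibition or plain growth inhibition; 0% = median of DMSO wells and 100% = positive control at its reference dose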
TRPC4 PAM – positive allosteric modulators of TRPC4, primary screen, cell-based, mouse TRPC4beta, HEK293 mu-opioid, Fluo-4 calcium. Short transient receptor potential channel 4 (Mus musculus), Q9QUQ5. DAMGO EC20, Fluo-4 Ca2+ flux; stronger effect = higher value. B-score at 10 µM. 310,000 tested, 0.42% active. AID 2227, 2009;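 active = B-score of calcium response area above 5 SD of library B-scores, with initial fluorescence ratio within 5 SD of library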;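 also: B-score of integrated fluorescence ratio over time as area under calcium response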
Target sequence (Q9QUQ5 whole entry, looked up): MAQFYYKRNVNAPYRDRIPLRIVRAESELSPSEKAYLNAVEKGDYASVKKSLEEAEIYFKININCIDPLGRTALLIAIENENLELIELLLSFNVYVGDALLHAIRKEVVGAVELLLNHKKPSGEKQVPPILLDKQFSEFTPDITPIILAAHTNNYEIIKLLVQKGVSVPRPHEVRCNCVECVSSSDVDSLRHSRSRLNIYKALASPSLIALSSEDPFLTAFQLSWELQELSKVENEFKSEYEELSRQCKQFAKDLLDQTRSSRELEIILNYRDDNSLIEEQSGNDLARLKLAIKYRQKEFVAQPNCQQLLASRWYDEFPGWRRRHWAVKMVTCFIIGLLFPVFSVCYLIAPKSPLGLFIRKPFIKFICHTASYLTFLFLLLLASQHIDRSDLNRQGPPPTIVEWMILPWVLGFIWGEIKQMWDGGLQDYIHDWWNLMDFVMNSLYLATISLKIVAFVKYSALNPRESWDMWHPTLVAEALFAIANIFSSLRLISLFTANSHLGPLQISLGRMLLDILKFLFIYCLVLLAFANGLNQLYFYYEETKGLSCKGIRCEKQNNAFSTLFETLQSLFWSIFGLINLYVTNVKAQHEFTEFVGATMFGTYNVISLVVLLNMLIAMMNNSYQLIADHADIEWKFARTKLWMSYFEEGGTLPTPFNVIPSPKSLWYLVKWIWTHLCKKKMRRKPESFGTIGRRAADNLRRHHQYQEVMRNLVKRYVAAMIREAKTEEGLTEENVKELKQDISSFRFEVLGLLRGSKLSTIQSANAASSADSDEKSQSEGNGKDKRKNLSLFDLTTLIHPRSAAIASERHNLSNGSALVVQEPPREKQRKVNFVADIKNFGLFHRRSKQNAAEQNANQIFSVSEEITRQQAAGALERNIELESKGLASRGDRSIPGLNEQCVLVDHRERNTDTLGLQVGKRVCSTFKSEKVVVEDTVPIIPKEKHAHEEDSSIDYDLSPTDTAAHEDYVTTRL
IEC-6 cytotox – cytotoxicity in IEC-6 intestinal epithelial cells, primary screen, cytotoxicity control for KLF5 inhibitor project, cell-based, luminescence; 290,000 tested, 0.78% active; IEC-6 cytotoxicity, luminescence viability; inhibition, % at 5 µM; in the data active = inhibition above about 22%;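 also: 0% = plate median of test compound wells and 100% = cytotoxic reference compound wells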
TRPC6 inhibitor – mouse TRPC6 channel inhibitors, primary screen, cell-based, HEK293, membrane potential dye. ACh-evoked depolarization; stronger effect = lower value. 310,000 tested, 1.1% active. AID 2553, 2010. B-score at 10 µM;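 active = B-score under library mean minus 3 SD, initial fluorescence not abnormally high, positive integrated signal ratio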;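 also: B-score derived from integrated fluorescence ratio over the kinetic read; more negative B-score means stronger inhibition of depolarization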
MrgX1 antag – antagonists of human MrgX1 receptor, primary screen, HEK293 cells, Fluo-4 calcium flux. Mas-related G-protein coupled receptor member X1 (Homo sapiens), Q96LB2. 310,000 tested, 1.3% active. BAM8-22 antagonism; stronger effect = lower value. B-score at 10 µM. AID 588676, 2011;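 active = calcium-response B-score plate-corrected more than 3 library SD below zero, starting fluorescence within 5 deviations, no agonist response on first addition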;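 also: peak minus trough fluorescence over baseline after final BAM8-22 challenge near maximal dose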
aSyn 5UTR inh – MLPCN primary screen, SNCA 5' untranslated region. alpha-synuclein 5'UTR reporter, inhibitor activity. inhibition, % (tested at 7.5 µM). 300,000 tested, 0.82% active. AID 1813, 2009; in the data active = inhibition above about 60%;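 also: H4 neuroglioblastoma cells stably carrying SNCA 5'UTR luciferase fusion; 0% = DMSO wells and 100% = positive control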
TRPC6 act – mouse TRPC6 channel activators, primary screen, cell-based, HEK293, membrane potential dye | Short transient receptor potential channel 6 (Mus musculus), Q61143 | HEK293-TRPC6 membrane potential dye fluorescence; stronger effect = higher value | B-score at 10 µM | 310,000 tested, 0.13% active | AID 2550, 2010;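 active = B-score of the integrated fluorescence ratio above library mean plus 3 SD, and starting fluorescence ratio within library mean plus 5 SD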;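 also: higher score means more depolarization so channel activation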
TRPC4 agonist – activators of mouse TRPC4 channel, primary screen, Fluo4 calcium, HEK293 TRPC4beta/mu-opioid cells. Short transient receptor potential channel 4 (Mus musculus), Q9QUQ5. Fluo4 calcium fluorescence; stronger effect = higher value. B-score at 10 µM. 310,000 tested, 0.49% active. AID 2237, 2010;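 active = B-score above 5 SD of library B-scores, and initial fluorescence ratio not above library mean plus 5 SD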;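 also: positive B-score marks a calcium rise read as TRPC4 activation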
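Assay system: HEK293 cells stably co-expressing mouse TRPC4beta and mu-opioid receptor / Timing: Fluo4 dye loading 45 min at room temperature, 110 s recording / Signal: Fluo4 calcium-sensitive dye fluorescence, kinetic, 1 Hz baseline / Read-out: integrated baseline-normalised fluorescence ratio, converted to per-well B score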
TRPC4 block – inhibitors of mouse TRPC4 channel, primary screen, Fluo4 calcium, HEK293 TRPC4beta/mu-opioid cells; DAMGO-evoked Fluo4 calcium flux; stronger effect = lower value; B-score at 10 µM; Short transient receptor potential channel 4 (Mus musculus), Q9QUQ5; 300,000 tested, 0.39% active;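 active = B-score over 3 SD under the library average, no early fluorescence shift, positive overall ratio signal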
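Material: HEK293 cells with stable TRPC4beta plus mu-opioid receptor expression; probe or stimulus: DAMGO in two steps, submaximal then maximal; technique: Fluo4 calcium fluorescence by kinetic imaging, 5 s 1 Hz baseline; measure: integrated fluorescence ratio relative to baseline, converted to per-well B score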
KLF5 inhibitor – KLF5 expression inhibitors, primary screen, DLD-1 cells, luminescence; inhibition, % at 5 µM; DLD-1 KLF5 promoter-luciferase reporter; 290,000 tested, 0.23% active;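 active = inhibition above a per-plate limit of that plate's mean compound inhibition plus 3 SD, cut at about 60% in these data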;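 also: 0% = DMSO wells and 100% = LY294002 at 200 µM; higher means less KLF5 promoter-driven luciferase light; inactives centre near -14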
Active calls of the source: *; i = inactive; . = no result given; & = joins results of further samples.

SMILES	SKKanGAS inh	TRPC4 PAM	IEC-6 cytotox	TRPC6 inhibitor	MrgX1 antag	aSyn 5UTR inh	TRPC6 act	TRPC4 agonist	TRPC4 block	KLF5 inhibitor
C[C@H]1O[C@@H](n2cc(F)c(=O)[nH]c2=O)[C@H](O)[C@@H]1O	-1	i	.	i	i	9	i	i	i	.
Cn1c(NCc2ccccc2)nc2c1c(=O)n(Cc1ccc(Br)cc1)c(=O)n2C	47	i	-5	i	i	52	i	i	i	-27
COc1ccccc1N1CCN(C2CCN(C(=O)c3cc(OC)c(OC)c(OC)c3)CC2)CC1	-7	i	4	i	i	10	i	i	i	-16
O/N=C/c1ccc(OCC(O)COc2ccc(/C=N/O)cc2)cc1	0	i	-4	i	i	6	i	i	i	-37
CN1C(=O)NC(c2ccccc2)C2=C1CN(Cc1ccccc1)C2=O (centres undefined)	-3	i	-4	i	i	-3	i	i	i	-13
CN(C)c1cccc2c(S(=O)(=O)N3CCOCC3)cccc12	-5	i	7	i	i	-2	i	i	i	2
CCOC(=O)C(Oc1ccc(=O)[nH]n1)C(C)=O (centres undefined)	-12	i	-2	i	i	-16	i	i	i	-11
Cn1c(=O)n(CC(=O)Nc2ccccc2)c2ccccc21	-6	i	-4	i	i	4	i	i	i	-13
CC(C(=O)N(C)C)N(C#N)c1nc(N(C)C)nc(N(C)C)n1 (centres undefined)	-6	i	-4	i	i	-16	i	i	i	-10
CC(=O)OC1CC[C@@]2(C)C(CCC3C2CC(=O)[C@@]2(C)C3CC3CC(C)=CC(=O)C32)C1 (some centres undefined)	7	i	-1	i	i	-30	i	i	i	-16
COc1ccc2c(C)cc(C)nc2n1	-2	i	1	i	i	-6	i	i	i	-35
Cc1ccc(N(CC(=O)O)C2SC(=O)NC2=O)cc1 (centres undefined)	4	i	-2	i	i	3	i	i	i	-4
CNCC[C@H](Oc1ccc(C(F)(F)F)cc1)c1ccccc1	.	.	.	.	i	.	.	.	.	.
CCOC(=O)c1[nH]c2cc3c(cc2c1NC(=O)CN1CCC2(CC1)OCCO2)OCO3	14	i	2	i	i	-3	i	i	i	-16
CCOC(=O)CSc1nc2ccccc2c(=O)n1C	9	i	1	i	i	4	i	i	i	-6
O=C(CN1C2=NCCN2c2ccccc21)N1CCOCC1	2	i	0	i	i	24	i	i	i	-21
S=c1[nH]nc(-c2ccco2)n1C1CCCCC1	3	i	0	i	i	28	i	i	i	-1
COc1ccc(NC(=O)C2CSC3c4ccccc4C(=O)N23)cc1 (centres undefined)	-7	i	-4	i	i	12	i	i	i	0
Cc1ccccc1N1C(=O)C2ON(c3ccccc3)C(c3cccnc3)C2C1=O (centres undefined)	-1	i	-3	i	i	-12	i	i	i	-35
CC(C)NC[C@@H](O)COc1ccc(CC(N)=O)cc1	4	i	.	i	i	18	i	i	i	.
CC(=O)Nc1cc2c(cc1Br)OCCO2	1	i	0	i	i	0	i	i	i	7
CS(=O)(=O)c1ccc([C@@H](O)[C@@H](CO)NC(=O)C(Cl)Cl)cc1	108*	i	.	i	i	11	i	i	i	.
Nc1nnc(CSc2ccc(Cl)cc2)s1	-4	i	-2	i	i	-38	i	i	i	-17
Cc1cc(OCCN2CCOCC2)nc2ccccc12	-3	i	0	i	i	16	i	i	i	-10
COC(=O)CSc1nnc2n(-c3ccc(OC)cc3)c(=O)c3c4c(sc3n12)CCCCC4	1	i	-3	i	i	13	i	i	-7*	-10
CCCc1cc(Nc2c(C)n(C)n(-c3ccccc3)c2=O)n2c(nc3ccccc32)c1C#N	5	i	0	i	i	-8	i	i	i	-21
Cc1nnc(N2CCOCC2)c2ccccc12	5	i	-10	i	i	11	i	i	i	9
c1ccc(-c2nnc(OCCN3CCOCC3)c3ccccc23)cc1	-6	i	0	i	i	23	i	i	i	-44
CCCOc1cccc(C2/C(=C(/O)c3ccccc3)C(=O)C(=O)N2CCN(C)C)c1 (centres undefined)	-3	i	-1	i	.	-9	i	i	i	-16
CC(C)C(=O)N1CCN(c2nc(-c3ccccc3)c3c(c2C#N)CC(C)(C)OC3)CC1	4	i	-1	i	i	-11	i	i	i	11
O=C1C(=O)N(CCN2CCOCC2)C(c2ccccn2)/C1=C(/O)c1ccc(F)cc1 (centres undefined)	2	i	-3	i	i	5	i	i	i	-13
CC(=O)N[C@@H](CC(=O)O)C(=O)O	.	.	.	.	i	.	.	.	.	.
Clc1ccc2[nH]c3c(NCCCN4CCOCC4)ncnc3c2c1	2	i	4	i	i	-62	i	i	i	-22
Cn1c2ccccc2c2nn(-c3ccccc3)c(=O)cc21	13	i	0	i	i	32	i	i	i	-19
CCOC(=O)C(C)Oc1nc(Oc2ccccc2)nc(N(C)C)n1 (centres undefined)	-4	i	2	i	i	20	i	i	i	-19
Cc1ccc2[nH]c3c(NCCN4CCOCC4)ncnc3c2c1	3	i	4	i	.	-53	i	i	i	-14

3 compounds drawn at random from those above:
SMILES	SKKanGAS inh	TRPC4 PAM	IEC-6 cytotox	TRPC6 inhibitor	MrgX1 antag	aSyn 5UTR inh	TRPC6 act	TRPC4 agonist	TRPC4 block	KLF5 inhibitor
Cc1ccc(N(CC(=O)O)C2SC(=O)NC2=O)cc1 (centres undefined)	4	i	-2	i	i	3	i	i	i	-4
O=C1C(=O)N(CCN2CCOCC2)C(c2ccccn2)/C1=C(/O)c1ccc(F)cc1 (centres undefined)	2	i	-3	i	i	5	i	i	i	-13
Cn1c(=O)n(CC(=O)Nc2ccccc2)c2ccccc21	-6	i	-4	i	i	4	i	i	i	-13

(cont.)
SMILES	SKKanGAS inh	TRPC4 PAM	IEC-6 cytotox	TRPC6 inhibitor	MrgX1 antag	aSyn 5UTR inh	TRPC6 act	TRPC4 agonist	TRPC4 block	KLF5 inhibitor
O=c1[nH]c(=O)n([C@H]2C[C@H](O)[C@@H](CO)O2)cc1C(F)(F)F	-4	i	85*	i	i	77*	i	i	i	7
Cc1ccccc1COc1ccc(/C(O)=C2/C(=O)C(=O)N(CCCn3ccnc3)C2c2ccco2)cc1 (centres undefined)	-2	i	.	i	i	-23	i	i	.	.
Cc1cc(=O)oc2c(CN3CCCCC3)c(O)c(Cl)cc12	3	i	1	i	i	27	i	i	i	-13
OCCNc1nc(-c2ccccc2)c2ccccc2n1	-5	i	7	i	i	19	i	i	i	4
COCCc1ccc(OCC(O)CNC(C)C)cc1 (centres undefined)	0	i	-6	i	i	5	i	i	i	-37
CCn1cc(/C=N/O)c(C)n1	-2	i	-6	i	i	2	i	i	i	17
CCC1(C)Cc2ccccc2-c2nc(NCCO)n(-c3ccccc3)c(=O)c21 (centres undefined)	-15	i	-3	i	i	-16	i	i	i	-19
C=CCNc1nnc(SC2CC(=O)N(c3ccc(OC)cc3)C2=O)s1 (centres undefined)	0	i	-4	i	i	-12	i	i	i	-16
CCCC1C2C(=O)N(c3ccccc3OC)C(=O)C2ON1c1ccccc1 (centres undefined)	-3	i	4	i	i	-4	i	i	i	10
N#Cc1nc(-c2cccs2)oc1NCCc1ccccc1	6	i	-3	i	i	-111	i	i	i	-20
Cc1cc(=O)oc(C)c1C(=O)NCCC1=CCCCC1	-3	i	-1	i	i	15	i	i	i	-35
CC(=O)N(Cc1ccccc1)c1ccc(C(=O)O)cc1	3	i	-3	i	i	9	i	i	i	-7
CCCc1nc(N2CCCC2)c(C#N)c2c1CCCC2	36	i	1	i	i	4	i	i	i	-7
C=CCn1c(SCc2c(F)c(F)c(F)c(F)c2F)nc(O)cc1=O	41	i	2	i	i	9	i	i	i	-21
Cc1cc(=O)oc(C)c1C(=O)NCCc1ccccc1	8	i	4	i	i	7	i	i	i	-14
CCSC1=C(C#N)C(c2cccs2)C(C(=O)OC)=C(C)N1 (centres undefined)	1	i	7	i	i	-2	i	i	i	-42
Cc1nc(NCc2ccccc2)c(C(N)=O)c2c1COC(C)(C)C2	0	i	-7	i	i	25	i	i	i	5
CCN(CC)CCNC(=O)c1ccc(NC(C)=O)cc1	-3&-5	i	-3	i	i	23&-4	i	i	i	18
CCN(CCCc1ccccc1)CCCc1ccccc1	1	i	-1	i	i	1	i	i	i	-6
Cc1nc(=O)c(-c2ccccc2)c(C)n1-c1ccc(S(N)(=O)=O)cc1	0	i	-3	i	i	10	i	i	i	-10
CC(C)c1nc(NCC2CCCO2)c(C#N)c2c1COC(C)(C)C2 (centres undefined)	2	i	-1	i	i	37	i	i	i	-20
CCN(CC)CCOC(=O)C1(C2CCCCC2)CCCCC1	1	i	-6	-6.2*	i	-15	i	i	i	11
CC1(C)Cc2c(sc3nc(SCC(=O)NCc4ccco4)n(-c4ccccc4)c(=O)c23)CS1	-4	i	-5	i	i	4	i	i	i	-4
CCCc1nnc(NC(=O)Nc2ccccc2OC)s1	0	i	-4	i	i	-92	i	i	i	-12
O=P(O)(c1ccccc1)c1ccccc1O	0	i	-1	i	i	1	i	i	i	-14
Cc1cc(NC(=O)C2=C(O)c3ccccc3S(=O)(=O)N2C)no1	-2	i	-4	i	i	8	i	i	i	0
Cc1cccc(-n2ncc3c(NCCN4CCOCC4)ncnc32)c1	5	i	2	i	i	-26	i	i	i	-40
COc1ccc(NCc2cc3ccccc3[nH]c2=O)cc1	11	i	-1	i	i	-17	i	i	i	-15
CC(=O)c1cccc(N=C2NC(=O)C(CO)(CO)S2)c1	-3	i	1	i	i	12	i	i	i	-27
NS(=O)(=O)c1ccc(N=Nc2c[nH]c(=O)c(O)c2)cc1	10	i	3	i	i	-1	i	i	i	-15
CCOC(=O)CCc1c(C)c(C#N)c2nc3ccccc3n2c1-n1ccnc1C	-3	i	-1	i	i	-23	i	i	i	-21
COCCN(CCOC)C(=O)C12CCC(C)(C(=O)C1)C2(C)C (centres undefined)	-20	i	0	i	i	-8	i	i	i	-12
CC1=C(/C=C/C(=O)O)C(C)(C)CCC1	-1	i	1	i	i	13	i	i	i	-14
CCOC(=O)CSC1=C(C#N)C(c2ccc(OC)cc2)C2=C(CC(C)(C)CC2=O)N1 (centres undefined)	0	i	0	i	i	19	i	i	i	-3
NS(=O)(=O)c1cc2c(cc1Cl)NC(CSCc1ccccc1)=NS2(=O)=O	0	i	0	i	i	2	i	i	i	-9

The list is partial, so the mix of outcomes need not match the whole.
